High-throughput results as filed in PubChem BioAssay.
eIF4H inh: inhibitors of RNA binding by human eIF4H | Q15056 | eIF4H fluorescence polarization binding assay | inhibition, % at 35 µM | 290,000 tested, 0.94% active | AID 2012;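 active = 50% or more with normal probe brightness, or confirmed in later tests; about a fifth of its hits are not listed in these tables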;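 note: calls also rest on retests at 20 µM and on dose response follow-up; 0% = protein and probe with vehicle and 100% = probe without protein; strong numbers were not always called active; many hits fall short of the cut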
CSC inhib: blocks cancer stem cells. cancer stem cell-like cells viability, luminescence. inhibition, % at 7.5 µM. 300,000 tested, 1.1% active. AID 2717;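 active = mean at 75% or more and at least half the replicates too; tested in HMLE shEcad cells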;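 note: 0% = median of negative and 100% = median of positive control wells; the first replicate is given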
Rce1 inhib: inhibitors of yeast Ras-converting enzyme. AID 2563. calls only. yeast membranes, quenched prenylated peptide cleavage fluorescence. 290,000 tested, 0.27% active;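 active = fall in fluorescence gain of 50% or more versus controls, with final raw signal at or below 3038400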;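 note: plate controls were neutral control wells for no effect and wells lacking membranes for full effect; tested at 10 µM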
Target sequence (Q03530 whole entry, looked up): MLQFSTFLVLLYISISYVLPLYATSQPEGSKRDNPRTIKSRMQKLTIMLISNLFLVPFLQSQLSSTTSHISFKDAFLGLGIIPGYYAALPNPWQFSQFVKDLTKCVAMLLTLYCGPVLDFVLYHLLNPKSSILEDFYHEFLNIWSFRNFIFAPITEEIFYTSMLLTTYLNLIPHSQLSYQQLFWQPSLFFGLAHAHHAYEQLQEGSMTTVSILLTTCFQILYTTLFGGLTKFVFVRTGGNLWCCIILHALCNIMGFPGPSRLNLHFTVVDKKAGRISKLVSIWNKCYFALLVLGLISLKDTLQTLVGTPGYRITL
UUG fidelity: alters start codon recognition fidelity in yeast; S. cerevisiae UUG-firefly luciferase reporter, luminescence/redox ratio; activity score, % at 18.7 µM; 350,000 tested, 0.13% active;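 active = replicate mean at a twofold rise or more, about +100% in these data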;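 note: firefly luciferase made from a UUG start codon reports start codon fidelity; reporter light over untreated wells divided by growth signal over untreated wells; some hits fall short of that in this replicate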
PABP polyA inh: PABP-poly(A) binding inhibition. P11940. PABP-poly(A) RNA binding, fluorescence polarization. inhibition, % at 35 µM. 290,000 tested, 1% active;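 active = 50% or more with normal probe brightness, or confirmed in later tests; about a fifth of its hits are not listed in these tables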;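 note: calls also rest on retests at 20 µM and on dose response follow-up; controls were probe without protein and protein plus probe with vehicle; some compounds called inactive have numbers as strong as hits; many hits fall short of the cut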
Target sequence (P11940 whole entry, looked up): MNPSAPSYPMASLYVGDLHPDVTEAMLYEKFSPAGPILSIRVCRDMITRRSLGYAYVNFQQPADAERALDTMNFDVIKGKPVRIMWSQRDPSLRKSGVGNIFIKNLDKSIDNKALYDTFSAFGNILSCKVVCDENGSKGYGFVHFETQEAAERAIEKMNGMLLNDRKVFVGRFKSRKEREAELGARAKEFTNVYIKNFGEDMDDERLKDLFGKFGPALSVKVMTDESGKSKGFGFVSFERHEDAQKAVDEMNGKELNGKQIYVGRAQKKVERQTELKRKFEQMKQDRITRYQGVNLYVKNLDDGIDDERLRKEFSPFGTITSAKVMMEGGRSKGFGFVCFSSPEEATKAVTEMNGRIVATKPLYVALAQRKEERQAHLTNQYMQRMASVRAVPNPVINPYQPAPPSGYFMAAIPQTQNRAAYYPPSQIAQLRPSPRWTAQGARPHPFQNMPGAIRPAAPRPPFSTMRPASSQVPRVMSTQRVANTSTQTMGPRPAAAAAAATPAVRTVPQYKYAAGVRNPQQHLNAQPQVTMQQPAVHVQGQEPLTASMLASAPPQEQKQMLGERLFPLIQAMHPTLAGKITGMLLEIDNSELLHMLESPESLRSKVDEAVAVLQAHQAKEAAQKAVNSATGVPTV
MT1-MMP act inh: inhibitors of human MT1-MMP activation; P50281; HT1080 RFP-PRO-GFP cells, GFP/RFP ratio fluorescence, overnight; percent of plate control window, DMSO zero; GFP/RFP ratio change, % at 20 µM; 360,000 tested, 0.061% active; AID 651647;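 active = GFP/RFP ratio change of at least 30% with cell ATP level not reduced by more than half and red fluorescence within 50% of control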; note: strong numbers were not always called active
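system = RFP-PRO-GFP reporter HT1080 cells | dosing = 20 µM single dose, 1% DMSO | timing = overnight cell settling, then overnight compound exposure, 37 °C, 5% CO2 | read-out basis = GFP/RFP fluorescence ratio | controls = DMSO and RFP-L50D-GFP cell wells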
HIV Env fusion: HIV envelope-mediated fusion inhibition; HeLa-JRFL Env/CEM21 cell fusion, luciferase; AID 651610; inhibition, % at 12.3 µM; 360,000 tested, 1.1% active;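 active = mean replicate inhibition score of at least 50 and every replicate individually at or above 50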;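 note: 0% = plate neutral controls and 100% = maraviroc near 300 nM; one replicate is shown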
MT1-MMP act inh RFP: second read-out of MT1-MMP act inh, no call of its own (marks repeat the call); RFP signal change, %; measured here: RFP expression control read;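 0 = vehicle wells; hits needed this value within 50% of zero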
* marks the source's active call; other numbers are inactive results.

How did COc1ccc(Nc2nc(C)nc3c2nnn3Cc2ccccc2)cc1OC do in these assays?
eIF4H inh: 7; CSC inhib: -10; Rce1 inhib: inactive; UUG fidelity: -20; PABP polyA inh: -4; MT1-MMP act inh: -6; MT1-MMP act inh RFP: -19

What do the screens show for `Cc1nc(SCC(=O)NCCc2ccccc2)c2oc3ccccc3c2n1`?
eIF4H inh: 5; CSC inhib: -2; Rce1 inhib: inactive; UUG fidelity: -6; PABP polyA inh: -3; MT1-MMP act inh: 1; HIV Env fusion: -25; MT1-MMP act inh RFP: 5

Results for CCOC(=O)Cc1csc(SCC(=O)Nc2nccs2)n1 ?
CSC inhib: -9; Rce1 inhib: inactive; UUG fidelity: -12; MT1-MMP act inh: -7; HIV Env fusion: -10; MT1-MMP act inh RFP: -4

Results for CC(C)(C)c1ccc(SCCc2ccncc2)cc1 ?
eIF4H inh: -1; CSC inhib: 2; Rce1 inhib: inactive; UUG fidelity: -27; PABP polyA inh: 12; MT1-MMP act inh: -11; HIV Env fusion: 12; MT1-MMP act inh RFP: -33

How did CCOc1ccc(Br)cc1S(=O)(=O)Nc1ccc(NC(=O)c2ccccc2C)cc1 do in these assays?
eIF4H inh: 5; CSC inhib: 6; Rce1 inhib: inactive; PABP polyA inh: -10; MT1-MMP act inh: 0; MT1-MMP act inh RFP: 4

What do the screens show for `O=C(Nc1ccnn1C1CCN(Cc2ccccc2OCCO)CC1)c1cccc(F)c1`?
eIF4H inh: 2; CSC inhib: -4; UUG fidelity: -14; PABP polyA inh: -17; MT1-MMP act inh: -2; HIV Env fusion: 6; MT1-MMP act inh RFP: 1

How did COc1ccccc1CCNC(=O)C(=O)NCC1OCCN1C(=O)c1ccc(Cl)cc1 (stereo not given) do in these assays?
eIF4H inh: -7; CSC inhib: -7; Rce1 inhib: inactive; UUG fidelity: -21; PABP polyA inh: -2; MT1-MMP act inh: 0; HIV Env fusion: -14; MT1-MMP act inh RFP: 2

Results for Cc1ccc(-n2nc(C)c(Sc3ccccc3[N+](=O)[O-])c2N)cc1 ?
eIF4H inh: -8; CSC inhib: -7; Rce1 inhib: inactive; PABP polyA inh: -6; MT1-MMP act inh: 1; HIV Env fusion: 7; MT1-MMP act inh RFP: -4

What do the screens show for `CC1O[C@H](OC2C(COC3OC(CO)C(O)[C@H](O)C3O)OC(OC3CC[C@]4(C)C(CC[C@@]5(C)[C@@H]4C=C[C@]46OC[C@@]7(CCC(C)(C)C[C@H]74)C(O)C[C@@]56C)C3(C)C)C(O)C2O)C(O)C(O)C1O` (stereo not given in full)?
UUG fidelity: -3; MT1-MMP act inh: -4; HIV Env fusion: 12; MT1-MMP act inh RFP: -3

How did Cc1ccc(O)c(NC2=C(Cl)C(=O)N(Cc3ccccc3)C2=O)c1 do in these assays?
eIF4H inh: 9; Rce1 inhib: inactive; PABP polyA inh: 11; MT1-MMP act inh: -3; HIV Env fusion: 9; MT1-MMP act inh RFP: 2

Results for CCOc1ccc(C(=O)NCC(=O)NNC(=O)CN(C)S(=O)(=O)c2ccc(Cl)cc2)cc1 ?
Rce1 inhib: inactive; UUG fidelity: -5; MT1-MMP act inh: -1; HIV Env fusion: 0; MT1-MMP act inh RFP: 2

What do the screens show for `O=[N+]([O-])c1ccc(NCCNS(=O)(=O)c2ccccc2)c(C(F)(F)F)c1`?
eIF4H inh: 0; CSC inhib: -4; Rce1 inhib: inactive; UUG fidelity: -4; PABP polyA inh: -4; MT1-MMP act inh: 8; MT1-MMP act inh RFP: -8

What do the screens show for `Cc1ccc(OCc2nc(-c3ccc(-n4cccc4)cc3)no2)cc1C`?
eIF4H inh: 2; CSC inhib: 13; Rce1 inhib: inactive; UUG fidelity: -6; PABP polyA inh: 7; MT1-MMP act inh: 9; HIV Env fusion: -7; MT1-MMP act inh RFP: -2

What do the screens show for `CCc1ccc(-c2nc(-c3ccncc3)no2)cc1`?
eIF4H inh: 12; CSC inhib: -13; UUG fidelity: -70; PABP polyA inh: 3; MT1-MMP act inh: 1; MT1-MMP act inh RFP: -11

Results for O=C(N/N=C/c1cccnc1)c1ccc(NC(=O)c2ccc(Cl)cc2)cc1 ?
eIF4H inh: -19; Rce1 inhib: inactive; UUG fidelity: -20; PABP polyA inh: -7; MT1-MMP act inh: 0; HIV Env fusion: 8; MT1-MMP act inh RFP: -1

Taken from above (2 entries):
What do the screens show for `Cc1nc(SCC(=O)NCCc2ccccc2)c2oc3ccccc3c2n1`?
eIF4H inh: 5; CSC inhib: -2; Rce1 inhib: inactive; UUG fidelity: -6; PABP polyA inh: -3; MT1-MMP act inh: 1; HIV Env fusion: -25; MT1-MMP act inh RFP: 5

Results for CCOC(=O)Cc1csc(SCC(=O)Nc2nccs2)n1 ?
CSC inhib: -9; Rce1 inhib: inactive; UUG fidelity: -12; MT1-MMP act inh: -7; HIV Env fusion: -10; MT1-MMP act inh RFP: -4

Structural class, the compounds so far containing an aryl methoxy group (2)
How did COc1ccc(Nc2nc(C)nc3c2nnn3Cc2ccccc2)cc1OC do in these assays?
eIF4H inh: 7; CSC inhib: -10; Rce1 inhib: inactive; UUG fidelity: -20; PABP polyA inh: -4; MT1-MMP act inh: -6; MT1-MMP act inh RFP: -19

How did COc1ccccc1CCNC(=O)C(=O)NCC1OCCN1C(=O)c1ccc(Cl)cc1 (stereo not given) do in these assays?
eIF4H inh: -7; CSC inhib: -7; Rce1 inhib: inactive; UUG fidelity: -21; PABP polyA inh: -2; MT1-MMP act inh: 0; HIV Env fusion: -14; MT1-MMP act inh RFP: 2

(listing goes on)
Results for Cc1cc(NC(=O)CCNS(=O)(=O)c2cc(Br)cnc2N)ccc1Br ?
eIF4H inh: 3; CSC inhib: 56; Rce1 inhib: inactive; UUG fidelity: -9; PABP polyA inh: -1; MT1-MMP act inh: 3; HIV Env fusion: 59*; MT1-MMP act inh RFP: -2

How did CC(C)Cc1nc(Cl)c(C#N)c2c1CCC2 do in these assays?
eIF4H inh: -7; CSC inhib: -9; Rce1 inhib: inactive; UUG fidelity: -11; PABP polyA inh: 4; MT1-MMP act inh: 1; HIV Env fusion: 30; MT1-MMP act inh RFP: 0

What do the screens show for `CCCn1c(=O)c2ccccc2n2c(SCCOc3ccc(Cl)cc3)nnc12`?
eIF4H inh: 0; Rce1 inhib: inactive; UUG fidelity: -9; PABP polyA inh: 2; MT1-MMP act inh: 2; MT1-MMP act inh RFP: 2

Results for O=C(CN(C(=O)c1csnn1)c1cccc(F)c1)NCc1ccc(F)cc1 ?
eIF4H inh: 0; CSC inhib: -9; Rce1 inhib: inactive; PABP polyA inh: 0; MT1-MMP act inh: 3; HIV Env fusion: 9; MT1-MMP act inh RFP: 0

How did CCOC(=O)c1ccc(N2CCN(c3ccc(F)cc3)CC2)c(NC(=O)Nc2cccc(OC)c2)c1 do in these assays?
eIF4H inh: -3; Rce1 inhib: inactive; PABP polyA inh: 4; MT1-MMP act inh: 5; MT1-MMP act inh RFP: -8

How did CC1CCCN(C(=O)C2COc3ccccc3O2)C1 (stereo not given) do in these assays?
eIF4H inh: 5; Rce1 inhib: inactive; UUG fidelity: -14; PABP polyA inh: 2; MT1-MMP act inh: 0; HIV Env fusion: -4; MT1-MMP act inh RFP: 0

What do the screens show for `CO/N=C(\C)c1ncc(C(F)(F)F)cc1N1CCOCC1`?
eIF4H inh: -10; CSC inhib: -18; Rce1 inhib: inactive; UUG fidelity: -20; PABP polyA inh: 8; MT1-MMP act inh: -4; MT1-MMP act inh RFP: 7

Results for CN(C(=O)c1ccc(NC(=O)Cc2ccc(NC(=O)C3CCN(S(=O)(=O)c4cccc([N+](=O)[O-])c4)CC3)cc2)cc1)C1CCCC1 ?
UUG fidelity: -18; MT1-MMP act inh: -2; HIV Env fusion: 31; MT1-MMP act inh RFP: -4

How did COc1ccc(NC(=O)C2CCN(C(=O)c3ccccc3)CC2)c(OC)c1 do in these assays?
eIF4H inh: -2; CSC inhib: 2; UUG fidelity: -19; PABP polyA inh: 5; MT1-MMP act inh: 9; MT1-MMP act inh RFP: 0

How did COc1ccc(-c2cc(C(=O)NCc3cccnc3)no2)cc1 do in these assays?
eIF4H inh: -8; CSC inhib: 7; Rce1 inhib: inactive; UUG fidelity: -31; PABP polyA inh: 4; MT1-MMP act inh: 0; HIV Env fusion: -3; MT1-MMP act inh RFP: -1

Results for COc1ccc(S(=O)(=O)NCCCN2CCCC2=O)cc1OC ?
eIF4H inh: -11; CSC inhib: -2; Rce1 inhib: inactive; UUG fidelity: -7; PABP polyA inh: -7; MT1-MMP act inh: 1; HIV Env fusion: 5; MT1-MMP act inh RFP: 1

Results for CCNC(=S)N/N=C/c1cn(Cc2ccccc2F)c2ccccc12 ?
eIF4H inh: 5; CSC inhib: 31; Rce1 inhib: inactive; PABP polyA inh: -10; MT1-MMP act inh: -3; HIV Env fusion: 3; MT1-MMP act inh RFP: -15

Results for Cc1ccc(NC(=O)CSc2nc(N)cc(=O)[nH]2)cc1S(=O)(=O)N1CCCCC1 ?
CSC inhib: 1; UUG fidelity: 3; MT1-MMP act inh: 1; HIV Env fusion: -69; MT1-MMP act inh RFP: -1

Results for O=C(O)c1cnc(-c2ccccc2)nc1Sc1ccc(Cl)cc1 ?
eIF4H inh: -3; CSC inhib: 17; UUG fidelity: -13; PABP polyA inh: 12; MT1-MMP act inh: -4; HIV Env fusion: -122; MT1-MMP act inh RFP: -1

How did O=C(CC1CC2CCC1C2)NC1CCCCCCC1 (stereo not given) do in these assays?
eIF4H inh: -5; CSC inhib: -11; Rce1 inhib: inactive; UUG fidelity: -2; PABP polyA inh: -4; MT1-MMP act inh: -7; HIV Env fusion: 19; MT1-MMP act inh RFP: -5

What do the screens show for `Cc1cc(C)n(-c2ccc(Oc3ccccc3)c(S(=O)(=O)O)c2)n1`?
eIF4H inh: 1; CSC inhib: -9; Rce1 inhib: inactive; PABP polyA inh: -16; MT1-MMP act inh: -3; HIV Env fusion: 12; MT1-MMP act inh RFP: 2

How did C(=NOCc1ccccc1)c1cccnc1 do in these assays?
UUG fidelity: -1; MT1-MMP act inh: 1; HIV Env fusion: -32; MT1-MMP act inh RFP: 4

Results for C=CCn1c2ccccc2n2nc(C)c(=O)nc12 ?
eIF4H inh: 0; CSC inhib: -7; Rce1 inhib: inactive; UUG fidelity: -10; PABP polyA inh: -2; MT1-MMP act inh: 0; HIV Env fusion: -18; MT1-MMP act inh RFP: 5

How did CCOc1ccccc1NC(=O)NNS(=O)(=O)c1cc(C)ccc1C do in these assays?
eIF4H inh: 14; CSC inhib: -5; Rce1 inhib: inactive; UUG fidelity: 1; PABP polyA inh: 11; MT1-MMP act inh: 1; HIV Env fusion: -6; MT1-MMP act inh RFP: 0

Results for Cc1ccc(S(=O)(=O)N2CCC(C(=O)OCC(=O)N3CC(C)CC(C)C3)CC2)cc1C (stereo not given) ?
CSC inhib: -5; Rce1 inhib: inactive; MT1-MMP act inh: 5; HIV Env fusion: -2; MT1-MMP act inh RFP: 0

Results for CCN(CC(=O)Nc1ccc(NC(C)=O)cc1)C(=O)C1(c2ccc(Cl)cc2)CCC1 ?
UUG fidelity: 0; MT1-MMP act inh: -5; HIV Env fusion: -47; MT1-MMP act inh RFP: 1

How did Cc1c(Cl)c(C(=O)Nc2nc3ccccc3n2CCN2CCCCC2)nn1C do in these assays?
eIF4H inh: -1; CSC inhib: 8; Rce1 inhib: inactive; PABP polyA inh: -6

Results for COc1cc(OC)cc(C(=O)N[C@H](C(=O)Nc2ccc(NC(C)=O)cc2)C(C)C)c1 ?
eIF4H inh: 4; CSC inhib: -1; Rce1 inhib: inactive; UUG fidelity: 4; PABP polyA inh: -8; MT1-MMP act inh: -13; HIV Env fusion: 4; MT1-MMP act inh RFP: -10

What do the screens show for `COc1cccc(NC(=O)CSc2nnc(Cc3cccn3C)n2-c2ccc(F)cc2)c1`?
eIF4H inh: -6; CSC inhib: -7; Rce1 inhib: inactive; UUG fidelity: -2; PABP polyA inh: 1; MT1-MMP act inh: 2; HIV Env fusion: -15; MT1-MMP act inh RFP: 3

These rows are one share of the data, so the mix of outcomes need not match the whole.
